From PubChem BioAssay
Sfp PPTase inh: qHTS Assay for Inhibitors of Bacillus subtilis Sfp phosphopantetheinyl transferase (PPTase) | Biochemical Sfp PPTase activity, qHTS | Potency, µM, for the others: max response, negative = inhibition, usual class: inhibitors | 310,000 tested, 3.5% active | AID 1490, 2009; active means well fitted inhibition curve with a large enough effect; inconclusive means small, poorly fitted or top-dose-only effect, or another doubt; inactive means no such curve, though single readings can be large or run the other way;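 further: the enzyme is Sfp with the accession as filed and its product quenches rhodamine fluorescence; potency means the concentration at half of the fitted maximal effect; 0% = enzyme reaction without inhibitor and -100% = no enzyme wells; top concentration of the series not given in the record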
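Buffer: 50 mM Hepes-Na pH 7.6, 10 mM MgCl2, 0.01% Nonidet P-40, 0.01% BSA. Enzyme 15 nM, pre-exposed to compound 15 min; substrates then added and fluorescence change tracked over 30 min.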
Menin MLL FP FL: qHTS Assay for Inhibitors Targeting the Menin-MLL Interaction in MLL Related Leukemias: Competition With Fluorescein Labeled MLL-derived Peptide | Fluorescence polarization, fluorescein-MLL peptide displacement from menin | FP activity change, % at 61.4 µM | 290,000 tested, under 10 active; inconclusive = falling polarisation curve, or a change in total fluorescence; inactive = total fluorescence flat and polarisation flat or rising; no compound was filed as active; the % refers to the polarisation; negative = inhibition;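 further: % of control where 0% means no effect; inhibitors lower the polarisation; unlabelled MLL peptide was the positive control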
gsp antagonist: qHTS for Antagonists of gsp, the Etiologic Mutation Responsible for Fibrous Dysplasia/McCune-Albright Syndrome: qHTS. gsp-mutant cells, cAMP HTRF, 30 min; control for the full effect not named in the record. Potency, µM (series often up to 76.9 µM), for inactives: at the top dose activity change, negative = inhibition, hits mostly inhibitors. 340,000 tested, 0.4% active. AID 624288, 2012; active = falling curve of any shape with a large fitted effect; inconclusive = falling curve, mostly with a smaller effect; inactive = flat or rising curve; cell line not stated here;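 further: intracellular cAMP measured with PDE inhibitor Ro 20-1724 present during compound exposure; potency means the concentration at half of the fitted maximal effect; on the % scale 0 is the no-effect control and ±100 the full control effect; nearly all actives have a fitted effect of over 65% in size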
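Cells, 2000/well, grown 16–24 h in DMEM 10% FBS with 0.5 mg/ml G418, then compounds plus […] (300 uM addition stock), 30 min at 37C. cAMP read by HTRF (cAMP-d2 and anti-cAMP antibody-K in lysis buffer) after 30 min RT.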
gsp ag: qHTS for Agonist of gsp, the Etiologic Mutation Responsible for Fibrous Dysplasia/McCune-Albright Syndrome: qHTS; gsp mutant cells, cAMP HTRF, 30 min; control for the full effect not named in the record; Potency, µM (titrated, usually from 76.9 µM), for inactives: at the top dose activation (cAMP increase), most hits filed as activators; 340,000 tested, 0.13% active; AID 624287, 2012; active = well fitted activation curve with a large enough effect; inconclusive = small, poorly fitted or top-dose-only effect, or another doubt; inactive = no such curve, though single readings can be large or run the other way; cell line not stated here;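 further: phosphodiesterase inhibitor Ro 20-1724 added with compounds to block cAMP breakdown; potency means the concentration at half of the fitted maximal effect; nearly all actives have a fitted effect of over 60% in size; about a fifth of the inactives were tested at one dose only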
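Cells stably selected in G418 were plated at 2000/well, grown 16-24 hr, then given compounds in DMSO with the PDE inhibitor […] (300 uM solution added) for 30 min at 37C; cAMP was read by HTRF.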
TRPML1 blocker: qHTS for Inhibitors of the Human Mucolipin Transient Receptor Potential 1 (TRPML1). TRPML1-inducible cells, Ca2+ dye fluorescence, FDSS; active compounds read low; inhibition of EC80 agonist-evoked calcium signal. activity change, negative = inhibition, % (test concentration not listed). 390,000 tested, 0.02% active; in the data active means activity change below about -50%; inconclusive means about -30% to -50%; inactive means above about -30%;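 further: stimulus is agonist 54-4 at its EC80 concentration; on the % scale 0 is the no-effect control and ±100 the full control effect; compound concentration not given in the record; the text of the record puts the active cut at -80%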
Target sequence (Q9GZU1 whole entry, looked up): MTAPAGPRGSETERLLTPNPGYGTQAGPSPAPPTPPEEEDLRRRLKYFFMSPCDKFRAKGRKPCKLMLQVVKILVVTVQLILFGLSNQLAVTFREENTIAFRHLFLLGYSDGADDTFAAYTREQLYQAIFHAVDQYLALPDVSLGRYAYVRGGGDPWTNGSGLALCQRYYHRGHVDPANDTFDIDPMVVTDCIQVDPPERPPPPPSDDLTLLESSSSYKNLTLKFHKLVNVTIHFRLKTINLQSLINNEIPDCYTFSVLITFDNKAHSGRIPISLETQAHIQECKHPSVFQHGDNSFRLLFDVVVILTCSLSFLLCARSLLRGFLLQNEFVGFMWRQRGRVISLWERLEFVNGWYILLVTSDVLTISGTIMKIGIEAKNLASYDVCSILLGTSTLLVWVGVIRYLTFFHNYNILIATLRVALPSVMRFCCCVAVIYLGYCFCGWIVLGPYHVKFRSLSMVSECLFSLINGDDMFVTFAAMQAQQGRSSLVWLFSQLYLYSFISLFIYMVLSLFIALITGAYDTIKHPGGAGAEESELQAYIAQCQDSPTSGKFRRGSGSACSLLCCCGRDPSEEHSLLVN
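Tet-induced TRPML1-DL cells loaded with Ca8 no-wash calcium dye were read kinetically on FDSS. Compound addition was followed by EC80 agonist 54-4 (4 uM final); inhibition was read over 110 s.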
ClpP mod: qHTS Assay for Activators of ClpP; ATP-dependent Clp protease proteolytic subunit (Bacillus subtilis (strain 168)), P80244; purified B. subtilis ClpP, FRET peptide cleavage, 20 min; Potency, µM (titrated, usually from 57.5 µM), inactives show top-dose activity change, negative = active; 340,000 tested, 1.9% active; AID 651965, 2013; active = well fitted falling curve with a large enough effect; inconclusive = small, poorly fitted or top-dose-only effect; inactive = no such curve, though single readings can be large or run the other way; further: potency means the concentration at half of the fitted maximal effect; the source files actives as falling curves though it sought activators and does not explain the sign; nearly all actives have a fitted effect of over 65% in size; many hits overshoot -100%
Target sequence (P80244 whole entry, looked up): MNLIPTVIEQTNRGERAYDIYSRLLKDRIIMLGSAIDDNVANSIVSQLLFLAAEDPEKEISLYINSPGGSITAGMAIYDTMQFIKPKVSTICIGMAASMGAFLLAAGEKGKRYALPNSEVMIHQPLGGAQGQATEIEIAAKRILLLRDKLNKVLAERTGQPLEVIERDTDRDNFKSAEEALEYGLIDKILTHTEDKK
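Buffer: 100 mM Tris/HCl pH8, 100 mM KCl, 0.05% low protease BSA, 2.5% glycerol, 0.01% Tween-20. ClpP 10 microg/mL final; 20 min RT; delta FRET normalized to ADEP and DMSO controls.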
TRPV1 potentiator: HTS Assay for Compounds that Act as Potentiators of the Vanilloid Receptor 1. Transient receptor potential cation channel subfamily V member 1 (Homo sapiens), Q8NER1. TRPV1-expressing cells, Fluo-8 calcium influx, capsaicin EC20 potentiation; host cell line not named in the record; control for the full effect not named in the record. potentiation, % at 8.33 µM. 320,000 tested, 0.02% active; active means potentiation above 80%; inconclusive means 30% to 80%; inactive means below 30%; further: 0% is about no effect
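TRPV1-expressing cells were cultured overnight at 35.5C and loaded with Fluo-8 calcium dye for 40 to 90 min at room temperature. After a 10 s baseline, compound was added and calcium influx was read kinetically for 3 min (ex 480/em 520 nm).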
Starred values were filed as active, the others as inactive; ? = inconclusive; nt = no result given; & = joins results of further samples; [ ] = remark or other dose. Outcome played no part in choosing rows (roughly 4.9% active in at least one column).

mol | Sfp PPTase inh | Menin MLL FP FL | gsp antagonist | gsp ag | TRPML1 blocker | ClpP mod | TRPV1 potentiator
CN1c2ccccc2C(C)(C)C12CCCC(=O)N2 (centres undefined) | -29.5% | ? | -3.7% | 22.4% | 3.4 | -10.1% | 2.8
Cc1ccccc1-c1n[nH]c(=S)n1/N=C/c1ccc(-c2ccccc2Br)o1 | -2.1% | 2.7 | -24.7% | 0.3% | 1.2 | 0.0% | 6.6
COc1ccc(SCC(Cc2ccccc2)N2CCN(CCc3ccccc3)CCC2=O)cc1 (centres undefined) | -25.8% | -1.9 | nt | nt | 5.6 | nt | nt
O=C(CSc1nc(C(F)(F)F)cc(=O)[nH]1)Nc1nccs1 | nt | nt | 9.7% | -12.7% | 24.3 | 2.6% | 2.5
O=C(CCCc1nc(-c2ccccc2)no1)N1CCOCC1 | 7.5% | 6.5 | 3.7% | -2.3% | 22.8 | -5.5% | -1.6
CCCOc1ccc2c(C)c(CC(=O)OC)c(=O)oc2c1 | 6.3% | 0.5 | -1.7% | ? | 1.7 | 10.2% | 1.7
CC(C)c1nn(-c2cc(C(F)(F)F)ccn2)c(=O)o1 | 8.3% | 1.9 | 0.1% | 12.7% | 31.1 | -5.6% | -7.4
COC(=O)c1nn(-c2ccccc2)c(Sc2ccc(Br)cc2)c1/C=N/O | 12.8% | 4.2 | -10.2% | -0.2% | -9.2 | -3.0% | 7.7
O=C1COc2ccc(C(=O)c3ccccc3C(=O)NCc3ccccc3)cc2N1 | 23.1% | -3.8 | -16.3% | -44.9%[inhibitor] | 12.6 | 0.5% | -0.4
CC1(C)CCC(=O)N2CC[C@H]3C[C@H](OC(=O)Nc4ccccc4)C[C@@H]1[C@H]32 | 21.4% | -8.8 | -10.3% | nt | -17.1 | -0.1%&-2.4% | -17.7
COc1ccc(C(C(=O)NC2CCCCC2)N(Cc2ccco2)C(=O)CNC(=O)c2ccco2)cc1 (centres undefined) | nt | nt | 4.9% | 4.6% | -6.1 | 1.4% | nt
CCc1nnc(N/N=C/c2ccc(O)c(OC)c2)n1N | ? | 1.9 | -4.6% | -16.4% | -2.1 | -2.4% | -2.1
COc1ccc(CCNC(=O)C(NS(=O)(=O)c2cccc3nsnc23)C(C)C)cc1OC (centres undefined) | 12.7% | nt | -13.3% | 23.0% | 10.9 | 1.8% | -2.4
CC[C@@H]1C=C(C(=O)O)[C@H](c2cccc(C)c2)N1S(=O)(=O)c1ccc(C)cc1 | nt | nt | 1.4% | nt | -24.4 | -2.8% | nt
O=C(Nc1ccc(Cl)cn1)Nc1cccs1 | 39.8µM* | 10.1 | -11.7% | 11.5% | 0.6 | -2.6% | -5.9
O=C(CSc1nc(-c2ccc(F)cc2)cc(C(F)(F)F)n1)NCCN1CCOCC1 | 0.8% | -3.0 | -11.2% | -3.6% | -11.0 | 0.4% | -4.6
COc1cc2c(cc1OC)C(c1ccc([N+](=O)[O-])cc1)NCC2 (centres undefined) | -1.8% | 3.1 | 2.0% | ? | 2.2 | 0.5% | 3.9
O=C(C[C@H]1C[C@H](C(=O)N2CCOCC2)[C@@]2(CCC3CCCC3)c3[nH]c4cc(-c5ccco5)ccc4c3CCN2C1=O)NCCc1ccccn1 | nt | nt | -11.1% | nt | 10.4 | 4.4% | nt
C=CCNC(=O)c1ccc(C2SCC(=O)N2Cc2ccccc2)cc1 (centres undefined) | 1.9% | 7.9 | -4.7% | ? | 3.1 | -5.0% | 4.6
CCC[N+](C)(C)C(C)C(OC(C)=O)c1ccccc1 (centres undefined) | 4.2% | 0.9 | 7.3% | 5.2% | 3.4 | nt | -14.4
N=C1/C(=C/c2cccn2Cc2ccc(Cl)cc2)C(=O)N=C2SC=CN12 | 39.8µM* | 1.2 | 2.5% | 18.4%[15.4 µM] | -8.3 | -1.5% | -11.8
COc1ccc(S(=O)(=O)Nc2cccc3c2O[C@H](CN(C)Cc2ccncc2)[C@@H](C)CN([C@H](C)CO)C3=O)cc1 | nt | nt | -5.4% | -20.3% | 10.7 | -0.6% | nt
CCOc1ccc(/C=C2\NC(=S)NC2=O)cc1 | 13.9% | 0.6 | -9.4% | -31.3%[inhibitor] | nt | -1.1% | -11.5
CCOc1ccc(C(=O)NC(C(=O)NCc2ccccc2OC)C(C)C)cc1 (centres undefined) | 3.8% | 1.1 | -4.5% | -9.7% | 4.5 | 0.6% | -8.5
CCN1N=C(c2cc(Cl)sc2Cl)CSC1=O | -12.3% | 4.2 | ? | -26.5% | -0.3 | -3.0% | -12.0
O=C(N/N=C/c1ccccc1OC(=O)c1ccc2c(c1)OCO2)c1cccc(F)c1 | 37.2% | 5.2 | -13.0% | -43.5%[inhibitor] | 2.4 | -0.3% | 7.9
Cc1nc2ccc(NC(=O)Cc3cccc(F)c3)cc2s1 | 4.3% | -0.3 | 12.2% | -27.2%[15.4 µM] | -3.8 | nt | -9.2
CCN(CC)CCSc1nnc2c3ccccc3n(CCc3ccccc3)c2n1 | -2.3% | -0.8 | -6.2% | ? | 33.4 | -1.6% | -4.3
CC(C)(C)OC(=O)CNC(=O)c1nc[nH]c1C(=O)NCc1ccccc1 | 11.7% | -0.8 | -5.1% | 22.6% | -3.3 | -4.6% | -10.7
CC(C)(C)C(=O)COC(=O)c1ccc(O)cc1 | 8.5% | 0.8 | 6.4% | -22.3% | 1.4 | -1.1% | -5.7
Cn1nccc1NC(=O)c1nccnc1C(=O)O | -21.9% | 0.2 | 4.2% | 1.3% | 8.5 | 1.2% | 17.6
COc1cccc(CNC(=O)CCCCCNC(=O)N2CCn3c2nc2ccccc23)c1 | 12.3% | -2.0 | -0.2% | 0.4% | -5.9 | -1.2% | 18.9
O=C(NC1CCCCC1)C1CCN(C(=O)NCc2ccccc2)CC1 | 7.2% | 0.3 | 3.2% | 3.1% | 20.6 | -0.3% | -8.0
O=C(NCCN1C(=O)S/C(=C\c2ccc(Cl)c(Cl)c2)C1=O)c1cnccn1 | 2.6% | 6.5 | 31.0%[activator] | 10.6% | 9.3 | -7.4% | 1.7
O=C(CNC(=O)c1cccs1)NCC(=O)OCc1ccccc1Br | -9.4% | 3.2 | -4.6% | -2.5%[15.4 µM] | -3.6 | nt | -7.9
Cc1ccc(C(=O)C=CNNC(=O)c2ccccc2)cc1 | 5.3% | 0.3 | -10.3% | 13.4% | nt | -1.0% | -8.8
O=C(CCC1CCCCC1)NNC(=O)NC12CC3CC(CC(C3)C1)C2 | -6.1% | 5.2 | -1.6% | 13.8% | 5.9 | 1.4% | -1.7
CCOC(=O)CC(=O)CSc1nc(-c2ccccc2)cc(-c2ccccc2)c1C#N | -10.6% | ? | -2.7% | 13.0% | 0.9 | ? | 5.2
O=C(CSc1cccc(C(F)(F)F)c1)Nc1ccc(N2CCOCC2)cc1 | nt | nt | 2.7% | -48.7% | -8.2 | -2.1% | nt
COc1ccccc1N(CC(=O)NCCSCc1ccc(C)cc1)S(=O)(=O)c1ccccc1 | 8.0% | nt | -30.5% | ? | 30.8 | -3.1% | ?
Cc1nn(CC(=O)Nc2cccnc2N2CCOCC2)c(=O)c2ccccc12 | 16.0% | -2.1 | nt | nt | nt | nt | -13.2
c1ccc(Cn2nnc3c(N4CCC5(CC4)OCCO5)ncnc32)cc1 | 7.0% | 5.1 | 1.3% | -16.6% | -7.3 | 0.5% | -8.5
COC(=O)c1sc(-c2ccccc2)cc1NC(=O)c1ccc(OC)cc1 | -1.7% | 7.2 | 2.7% | 7.9% | 7.7 | ? | -3.3
CCCCOC(=O)Nc1ccc(C(N)=O)cc1 | 11.2% | 1.6 | -9.2% | 7.0% | 2.8 | -1.2% | -29.2
O=C(c1ccc(=O)[nH]c1)N1CCN(S(=O)(=O)c2ccccc2)CC1 | 16.1% | nt | 3.4% | 2.5%[15.4 µM] | 32.6 | -1.4% | 0.7
CCn1c(SC(C)C)nnc1-c1cc(-c2ccccc2)sc1N | -16.8% | 5.6 | ? | -7.6% | -3.2 | -18.5% | 4.9
C[C@H]1CCC[C@@]2(O[C@H](CCO)C[C@@H](O)[C@@H]2O)O1 | nt | nt | -0.1% | nt | -7.9 | 0.4% | nt
CCN(CC)CCN(C(=O)c1ccc(C(=O)c2ccccc2)cc1)c1nc2ccc(OC)cc2s1 | -13.6% | -0.9 | -13.1% | 4.6% | -3.8 | -2.4% | 8.6
Cc1cccc(NC(=O)C[n+]2ccccc2)c1 | 2.2% | -2.7 | 6.5% | 0.5%[15.4 µM] | -0.8 | -0.6% | -4.9
COc1ccccc1-n1cnnc1SCC(=O)NC1CCCC1 | nt | nt | 0.0% | -1.2% | -2.0 | 0.1% | 12.6

Additional records.
mol | Sfp PPTase inh | Menin MLL FP FL | gsp antagonist | gsp ag | TRPML1 blocker | ClpP mod | TRPV1 potentiator
NNC(=O)c1sc(-c2ccccc2)cc1N | 6.0% | -5.0 | -7.0% | 0.0%[15.4 µM] | 19.7 | nt | 14.3
O=C(CSc1nnc(COc2ccc(F)cc2)o1)N1CCCCC1 | 12.8% | -4.5 | 3.8% | 2.7%[15.4 µM] | -5.7 | nt | -5.7
O=C(NN=Cc1ccc([N+](=O)[O-])cc1)c1ccncc1 | nt | nt | 10.3% | ? | -1.0 | nt | nt
Cc1ccc(NC(=O)NCc2c(C)nn(C)c2C)cc1Cl | 9.8% | 1.5 | 8.0% | -7.6%[15.4 µM] | 6.6 | -3.3% | -4.3
